From PubChem BioAssay
PINK1 modulator – A Quantitative High throughput Screen to Identify Chemical Modulators of PINK1 Expression | PINK1 immunofluorescence, high-content cytometry, 24 h | Potency, µM (doses to about 76.6 µM), for inactives: at the top dose activation (PINK1 increase), usual class: activators | 410,000 tested, 0.2% active | AID 624263, 2012; active = well fitted activation curve with a large enough effect; inconclusive = small, poorly fitted or top-dose-only effect; inactive = flat fitted curve, though single readings scatter; cell line not stated here;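 note: potency is the fitted concentration of half-maximal effect; % of control where 0% means no effect; nearly all actives have a fitted effect of over 65% in size; a mitochondrial uncoupler was the plate control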
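Readout is PINK1 immunofluorescence, quantified alongside mitochondrial, cell and nuclear markers by laser-scanning microplate cytometry. Cells from a stable line were exposed to compound titrations (5 concentrations) for 24 hours, with CCCP controls.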
TRPV1 potentiator – HTS Assay for Compounds that Act as Potentiators of the Vanilloid Receptor 1; AID 540277, 2011; potentiation, % at 8.33 µM; Transient receptor potential cation channel subfamily V member 1 (Homo sapiens), Q8NER1; 320,000 tested, 0.02% active; TRPV1-expressing cells, Fluo-8 calcium influx, capsaicin EC20 potentiation; host cell line not named in the record; control for the full effect not named in the record; active means potentiation above 80%; inconclusive means 30% to 80%; inactive means below 30%; note: 0% is about no effect
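Fluo-8 calcium influx in TRPV1-expressing cells, kinetic read (ex 480/em 520 nm). Compound added and read 3 min for agonist activity, followed by capsaicin at EC20 final and 2 min further read for enhancement.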
ClpP mod – qHTS Assay for Activators of ClpP | Potency, µM (top dose mostly 57.5 µM), for inactives: top-dose activity change, negative = active | purified B. subtilis ClpP, FRET peptide cleavage, 20 min | AID 651965, 2013 | ATP-dependent Clp protease proteolytic subunit (Bacillus subtilis (strain 168)), P80244 | 340,000 tested, 1.9% active; active = well fitted falling curve with a large enough effect; inconclusive = small, poorly fitted or top-dose-only effect; inactive = no such curve, though single readings can be large or run the other way; note: potency is the fitted concentration of half-maximal effect; the source files actives as falling curves though it sought activators and does not explain the sign; nearly all actives have a fitted effect of over 65% in size; many hits overshoot -100%
Target sequence (P80244 whole entry, looked up): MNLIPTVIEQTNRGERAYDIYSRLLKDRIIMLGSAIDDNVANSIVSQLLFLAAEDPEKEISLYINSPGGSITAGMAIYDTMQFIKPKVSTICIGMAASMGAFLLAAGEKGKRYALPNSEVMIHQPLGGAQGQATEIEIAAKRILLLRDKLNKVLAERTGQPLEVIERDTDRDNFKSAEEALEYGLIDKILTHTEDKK
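FRET quenching reversal measured ClpP activation: 10 microg/mL B. subtilis ClpP at pH 8 with the FRET-FV decapeptide, read at 430 nm after 320 nm excitation. The 20-min minus 0-min signal was scaled between DMSO/no-enzyme wells and ADEP (5.8 microM final).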
TRPML1 ag – qHTS for Agonists of the Human Mucolipin Transient Receptor Potential 1 (TRPML1). activation, % (concentration not given with the values). TRPML1-expressing cells, Ca2+ dye fluorescence, FDSS; host cell line not named in the record; reference of the full effect not given here. AID 624414, 2012. 410,000 tested, 0.12% active; in the data active = activation above about 50%; inconclusive = about 30% to 50%; inactive = below about 30%; note: 0% is about no effect; the text of the record puts the active cut at 80%
Target sequence (Q9GZU1 whole entry, looked up): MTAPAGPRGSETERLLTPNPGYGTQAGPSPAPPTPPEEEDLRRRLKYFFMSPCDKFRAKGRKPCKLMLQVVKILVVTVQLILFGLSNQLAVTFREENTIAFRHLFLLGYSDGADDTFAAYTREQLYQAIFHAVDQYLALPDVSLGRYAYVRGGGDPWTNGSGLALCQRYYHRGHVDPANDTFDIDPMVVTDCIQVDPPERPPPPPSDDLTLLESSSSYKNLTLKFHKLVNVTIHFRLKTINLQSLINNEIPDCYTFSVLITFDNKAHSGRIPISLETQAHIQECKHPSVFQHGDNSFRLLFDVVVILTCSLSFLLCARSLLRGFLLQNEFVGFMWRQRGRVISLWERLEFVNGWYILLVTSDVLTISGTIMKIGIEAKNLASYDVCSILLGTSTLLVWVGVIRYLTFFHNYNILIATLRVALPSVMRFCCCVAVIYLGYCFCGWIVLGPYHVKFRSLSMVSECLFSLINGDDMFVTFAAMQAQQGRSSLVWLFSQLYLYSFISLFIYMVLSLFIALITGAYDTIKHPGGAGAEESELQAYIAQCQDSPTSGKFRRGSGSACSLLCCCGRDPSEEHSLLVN
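Calcium fluorescence on an FDSS kinetic reader gave the read-out. Tet-induced TRPML1-DL cells were plated overnight, dye-loaded (Ca8 with quencher, 45-90 min, room temperature, dark), then read 110 s after compound addition, and again 110 s after 4uM final 54-4 (EC80).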
Sfp inh – qHTS Assay for Inhibitors of Bacillus subtilis Sfp phosphopantetheinyl transferase (PPTase); Biochemical Sfp PPTase activity, qHTS; Potency, µM, for the others: max response, negative = inhibition, most hits filed as inhibitors; 4'-phosphopantetheinyl transferase ffp (Bacillus subtilis), Q9F4F7; 310,000 tested, 3.5% active; active = well fitted inhibition curve with a large enough effect; inconclusive = small, poorly fitted or top-dose-only effect, or another doubt; inactive = no such curve, though single readings can be large or run the other way;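 note: the enzyme is Sfp with the accession as filed and its product quenches rhodamine fluorescence; potency is the fitted concentration of half-maximal effect; 0% = enzyme reaction without inhibitor and -100% = no enzyme wells; top concentration of the series not given in the record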
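Fluorescence-quenching assay with 15 nM Sfp, 5 uM rhodamine-CoA and 12.5 uM BHQ-2-labelled ybbR peptide in pH 7.6 Hepes/MgCl2 buffer. Enzyme was pre-incubated with compound for 15 min at room temperature. Rate was taken from the 30-min fluorescence change (525/598 nm).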
TRPML1 inh – qHTS for Inhibitors of the Human Mucolipin Transient Receptor Potential 1 (TRPML1); TRPML1-inducible cells, Ca2+ dye fluorescence, FDSS; hits give low values; inhibition of EC80 agonist-evoked calcium signal; activity change, negative = inhibition, % (test concentration not listed); 390,000 tested, 0.02% active; in the data active means activity change below about -50%; inconclusive means about -30% to -50%; inactive means above about -30%;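 note: stimulus is agonist 54-4 at its EC80 concentration; % is set by controls: 0 for no effect and ±100 for the full control effect; compound concentration not given in the record; the text of the record puts the active cut at -80%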
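TRPML1-DL cells, Tet-induced overnight (~16 h, 37 °C) at 1,500 cells/well, were loaded with Ca8 no-wash dye plus quencher for 45-90 min at room temperature. Compounds were pinned during FDSS kinetic reading; agonist 54-4 at EC80 (4 uM final) then added.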
Menin MLL FP FL – qHTS Assay for Inhibitors Targeting the Menin-MLL Interaction in MLL Related Leukemias: Competition With Fluorescein Labeled MLL-derived Peptide | AID 1766, 2009 | FP activity change, % at 61.4 µM | 290,000 tested, under 10 active | Fluorescence polarization, fluorescein-MLL peptide displacement from menin; inconclusive = falling polarisation curve, or a change in total fluorescence; inactive = total fluorescence flat and polarisation flat or rising; no compound was filed as active; the % refers to the polarisation; negative = inhibition;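 note: % of control where 0% means no effect; inhibitors lower the polarisation; unlabelled MLL peptide was the positive control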
An asterisk follows results filed as active; [ ] = remark or other dose.

What do the screens show for `O=C(c1ccc(F)cc1)C1CCN(C(=O)c2ccccc2F)CC1`?
PINK1 modulator: 0.3%; TRPV1 potentiator: -13; ClpP mod: 0.9%; TRPML1 ag: -0.2; Sfp inh: -6%; TRPML1 inh: 4; Menin MLL FP FL: -1.3

Results for Cc1cccc(C)c1NS(=O)(=O)c1ccc2c(c1)[C@H]1C=CC[C@H]1[C@@H](c1ccc(Cl)cc1)N2 ?
PINK1 modulator: 3.8%; ClpP mod: 4.3%; TRPML1 ag: -0.5; TRPML1 inh: -6

How did COc1cc2c(=O)n(CCCC(=O)NCC3CCCO3)c(=O)n(CC(=O)c3ccc(F)cc3)c2cc1OC (configuration not stated) do in these assays?
PINK1 modulator: 2.3%; TRPV1 potentiator: 6; ClpP mod: 0.5%; TRPML1 ag: 0.8; Sfp inh: -1%; TRPML1 inh: -17; Menin MLL FP FL: 4.2

What do the screens show for `COC(=O)Nc1ccc2c(c1)Nc1ccccc1CC2`?
PINK1 modulator: 4.4%; TRPV1 potentiator: -7; TRPML1 ag: -0.5; Sfp inh: 10%; TRPML1 inh: -5; Menin MLL FP FL: -2.4

What do the screens show for `c1ccc(COc2cccc(-c3cc4nc(NCCN5CCOCC5)ccn4n3)c2)cc1`?
PINK1 modulator: 5.8%; ClpP mod: 5.1%; TRPML1 ag: 0.4

Results for O=C(Nc1ccc(Cl)cc1)Nc1ccccc1Sc1ncc([N+](=O)[O-])s1 ?
PINK1 modulator: -2.0%; TRPV1 potentiator: 3; ClpP mod: 0.3%; TRPML1 ag: 1.1; Sfp inh: 50µM*; TRPML1 inh: 6; Menin MLL FP FL: 8.1

How did O=C(NCCCO)NC12CC3CC(CC(C3)C1)C2 do in these assays?
PINK1 modulator: 3.7%[38.3 µM]; TRPV1 potentiator: 1; ClpP mod: 0.4%; TRPML1 ag: 3.0; Sfp inh: -4%; TRPML1 inh: 32; Menin MLL FP FL: -3.2

How did Cc1ccc(CCNC(=O)c2c(C)oc3nc(C)nc(N4CCOCC4)c23)cc1 do in these assays?
PINK1 modulator: -2.2%; ClpP mod: -0.4%; TRPML1 ag: 0.8; TRPML1 inh: -19

Results for O=C(CSc1ccc(-c2ccc(F)cc2)nn1)Nc1ccc2c(c1)OCCO2 ?
PINK1 modulator: 13%; TRPV1 potentiator: -13; ClpP mod: 2.0%; TRPML1 ag: -0.4; Sfp inh: -25%; TRPML1 inh: -12; Menin MLL FP FL: 12

Results for CCn1ccc2cc(OC)ccc2c1=S ?
PINK1 modulator: 2.7%; TRPV1 potentiator: 15; ClpP mod: 2.2%; TRPML1 ag: -1.3; Sfp inh: -107%; TRPML1 inh: 45; Menin MLL FP FL: 4.4

What do the screens show for `C=CCn1c(C)cc(C(=O)COC(=O)/C=C/c2ccc(OC)cc2)c1C`?
PINK1 modulator: 5.9%; TRPV1 potentiator: 3; ClpP mod: -9.7%; TRPML1 ag: 0.3; Sfp inh: 6%; TRPML1 inh: -6; Menin MLL FP FL: 0.3

Results for O=C(NC1CCCCC1)c1cccc2c1C(=O)c1ccc(-c3ccc(OC(F)(F)F)cc3)cc1S2(=O)=O ?
PINK1 modulator: 7.4%; ClpP mod: -2.8%; TRPML1 ag: -0.9; TRPML1 inh: 2

How did Cc1cc(SCC(=O)NC(=O)c2cccn2C)nc2ccccc12 do in these assays?
PINK1 modulator: -0.2%; TRPV1 potentiator: -13; ClpP mod: -0.3%; TRPML1 ag: 0.1; Sfp inh: -21%; TRPML1 inh: 6; Menin MLL FP FL: inconclusive

How did Cc1ccc(-c2cc3c(N4CCN(c5cc(C)ccc5C)CC4)nccn3n2)cc1 do in these assays?
PINK1 modulator: 0.9%; ClpP mod: -19%; TRPML1 ag: -0.8; TRPML1 inh: 1

Results for CCCn1nnc(NC(=O)c2ccc(Br)cc2)n1 ?
PINK1 modulator: 1.3%[38.3 µM]; TRPV1 potentiator: -6; ClpP mod: -2.1%; TRPML1 ag: -0.1; Sfp inh: 6%; TRPML1 inh: -15; Menin MLL FP FL: -2.6

Results for COc1ccc2nc3ccccc3nc2c1NC(=O)c1ccc(Br)cc1 ?
PINK1 modulator: 14µM*; TRPV1 potentiator: 3; ClpP mod: 0.9%; TRPML1 ag: -0.1; Sfp inh: -3%; TRPML1 inh: -7; Menin MLL FP FL: inconclusive

Results for Cc1cccc(C)c1NC(=O)Cn1nc(-c2ccc(Cl)s2)ccc1=O ?
PINK1 modulator: -1.4%; TRPV1 potentiator: 12; ClpP mod: -8.8%; TRPML1 ag: -0.7; Sfp inh: -14%; TRPML1 inh: 5

How did CCCCN(C(=O)C1=CC=CN2CCS(=O)(=O)N=C12)c1ccccc1 do in these assays?
PINK1 modulator: 0.0%; TRPV1 potentiator: 29; ClpP mod: -7.3%; TRPML1 ag: 0.2; TRPML1 inh: -30

What do the screens show for `Cn1nc2sc3ccccc3n2c(=O)c1=O`?
PINK1 modulator: 0.4%; TRPV1 potentiator: 5; TRPML1 ag: 0.6; Sfp inh: -11%; TRPML1 inh: 18; Menin MLL FP FL: 1.0

What do the screens show for `CC(C)COc1ccc(C(=O)Nc2ncn[nH]2)cc1`?
PINK1 modulator: -0.8%; TRPV1 potentiator: -3; ClpP mod: -1.0%; TRPML1 ag: 0.8; Sfp inh: 11%; TRPML1 inh: 21; Menin MLL FP FL: 1.0

Results for Cc1nn2c(=O)c3c4c(sc3nc2n1-c1ccccc1)COC(C)(C)C4 ?
PINK1 modulator: 2.0%; TRPV1 potentiator: -24; ClpP mod: -5.2%; TRPML1 ag: 0.8; Sfp inh: 7%; TRPML1 inh: 8; Menin MLL FP FL: 5.5

Results for CC(=O)N1CCN(c2ccccc2NC(=O)COc2cc(C)ccc2C(C)C)CC1 ?
PINK1 modulator: 0.0%; TRPV1 potentiator: -11; ClpP mod: 0.5%; TRPML1 ag: 0.2; Sfp inh: -6%; TRPML1 inh: -8; Menin MLL FP FL: 2.9

How did COCc1cc(C)n(CC(=O)Nc2ccc(N3CCOCC3)cc2)c(=O)c1C#N do in these assays?
PINK1 modulator: 4.8%; TRPV1 potentiator: 11; ClpP mod: -1.4%; TRPML1 ag: -0.2; TRPML1 inh: -4

What do the screens show for `COc1ccc(N2CC(C(=O)OCC(=O)c3ccccc3)CC2=O)cc1` (configuration not stated)?
PINK1 modulator: 1.4%; TRPV1 potentiator: 0; ClpP mod: 1.4%; TRPML1 ag: -0.8; Sfp inh: 11%; TRPML1 inh: -3; Menin MLL FP FL: -0.5

What do the screens show for `CC(C)(C)N(Cc1ccccc1)C(=O)CN1C(=O)c2ccccc2C1=O`?
PINK1 modulator: 4.4%; TRPV1 potentiator: -20; TRPML1 ag: 2.4; Sfp inh: 9%; TRPML1 inh: 4; Menin MLL FP FL: -1.1

What do the screens show for `Nc1ccc(S(=O)(=O)Nc2nc(-c3ccccc3)cc(-c3ccccc3O)n2)cc1`?
PINK1 modulator: 1.2%; ClpP mod: 1.4%; TRPML1 ag: 0.4; TRPML1 inh: 19

What do the screens show for `Cc1cccc(NC(=O)CN(c2ccc(F)cc2)S(C)(=O)=O)c1`?
PINK1 modulator: -0.9%; TRPV1 potentiator: 4; ClpP mod: -3.3%; TRPML1 ag: 0.5; Sfp inh: -24%; TRPML1 inh: inconclusive; Menin MLL FP FL: 1.5

What do the screens show for `O=C(N/N=C/c1cc([N+](=O)[O-])ccc1O)c1ccc(COc2ccc3c(c2)CCC3)o1`?
PINK1 modulator: 0.6%; TRPV1 potentiator: -7; ClpP mod: 1.6%; TRPML1 ag: -0.8; Sfp inh: 12%; TRPML1 inh: 13; Menin MLL FP FL: -0.1

Results for CCOC(=O)c1nc2ccccc2s1 ?
PINK1 modulator: 0.3%; TRPV1 potentiator: 0; ClpP mod: -3.5%; TRPML1 ag: -1.5; Sfp inh: 11%; TRPML1 inh: -10; Menin MLL FP FL: -1.1

How did Cc1ccc(NC(=O)C(c2ccccc2)N2CCN(C(=O)c3ccco3)CC2)cc1Cl (configuration not stated) do in these assays?
PINK1 modulator: 0.0%; TRPV1 potentiator: 11; ClpP mod: 2.9%; TRPML1 ag: -0.3; TRPML1 inh: 5

Random excerpt: two entries already listed
Results for COc1ccc2nc3ccccc3nc2c1NC(=O)c1ccc(Br)cc1 ?
PINK1 modulator: 14µM*; TRPV1 potentiator: 3; ClpP mod: 0.9%; TRPML1 ag: -0.1; Sfp inh: -3%; TRPML1 inh: -7; Menin MLL FP FL: inconclusive

Results for Cc1cccc(C)c1NC(=O)Cn1nc(-c2ccc(Cl)s2)ccc1=O ?
PINK1 modulator: -1.4%; TRPV1 potentiator: 12; ClpP mod: -8.8%; TRPML1 ag: -0.7; Sfp inh: -14%; TRPML1 inh: 5

(next part)
What do the screens show for `COC(=O)[C@@]1(Cc2ccccc2)C=C[C@@H](C)N1C(C)=O`?
PINK1 modulator: 0.6%; ClpP mod: -4.1%; TRPML1 ag: -0.4; Sfp inh: 5%; TRPML1 inh: -11; Menin MLL FP FL: 5.9

What do the screens show for `COc1ccc(C2Nc3ccccc3C(=O)N2Cc2ccco2)cc1COc1c(C)cccc1C` (configuration not stated)?
PINK1 modulator: 0.7%; ClpP mod: 4.3%; TRPML1 ag: -1.1

What do the screens show for `O=C(NCc1cccnc1)NC(C(F)(F)F)C(F)(F)F`?
PINK1 modulator: -0.1%; TRPV1 potentiator: -2; ClpP mod: 3.6%; TRPML1 ag: -0.9; Sfp inh: 16%; TRPML1 inh: inconclusive; Menin MLL FP FL: 0.7

Results for CC(=O)Nc1ccc(NS(=O)(=O)c2ccc3[nH]c4c(c3c2)CCCCC4)cc1 ?
PINK1 modulator: 0.4%; ClpP mod: 0.2%; TRPML1 ag: 1.8; TRPML1 inh: 14
